ClpP mod – qHTS Assay for Activators of ClpP | ATP-dependent Clp protease proteolytic subunit (Bacillus subtilis (strain 168)), P80244 | actives 1.9% (n = 340,000) | purified B. subtilis ClpP, FRET peptide cleavage, 20 min | Potency, µM (highest dose often 57.5 µM), for the others: top-dose activity change, negative = active; active = well fitted falling curve with a large enough effect; inconclusive = small, poorly fitted or top-dose-only effect; inactive = no such curve, though single readings can be large or run the other way; further: the source files actives as falling curves though it sought activators and does not explain the sign; nearly all actives have a fitted effect of over 65% in size; many hits overshoot -100%
Target sequence (P80244 whole entry, looked up): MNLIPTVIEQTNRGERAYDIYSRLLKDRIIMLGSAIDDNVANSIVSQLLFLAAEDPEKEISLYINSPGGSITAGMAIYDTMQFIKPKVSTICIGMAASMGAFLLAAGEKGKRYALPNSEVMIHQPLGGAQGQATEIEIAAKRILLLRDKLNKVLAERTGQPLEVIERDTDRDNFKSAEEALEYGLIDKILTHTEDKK
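Buffer: 100 mM Tris/HCl pH8, 100 mM KCl, 0.05% low protease BSA, 2.5% glycerol, 0.01% Tween-20. ClpP 10 microg/mL final; 20 min RT; delta FRET normalized to ADEP and DMSO controls.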
* = called active by the depositor; ? = inconclusive. Potency means the concentration at half of the fitted maximal effect. Not all compounds are listed. The share of hits here may be higher or lower than overall.

SMILES | ClpP mod
Cc1cc(C)c2oc(-c3cccc(NC(=O)c4ccc(-c5cccc([N+](=O)[O-])c5)o4)c3)nc2c1 | -2.4%
COc1ccccc1C(=O)NCc1nnnn1-c1ccc(C)c(C)c1 | -5.6%
Cc1ccc(-n2nc(C)c3c(C(=O)NCc4ccccc4)cc(C4CC4)nc32)cc1 | -13%
Cc1ccc(CN2CCSc3ccc(C(=O)N4CCN(c5cccc(C)c5C)CC4)cc32)cc1 | ?
CC(C)c1ccc(Nc2c(-c3ccccn3)nc3ccccn23)cc1 | -4.3%
CCOCCCNC(=O)C(c1ccccc1)N(Cc1ccc2c(c1)OCO2)C(=O)c1ccc(NC(C)=O)cc1 (stereo unspecified) | -0.3%
CCOc1ccc(NC(=O)Cn2c(=O)nc(-c3ccccc3)c3ccccc32)cc1 | -27%
CCOc1ccc(C(=O)Nc2ccc3c(c2)OCCO3)cc1Br | -0.8%
CCOC(=O)c1sc(NC(=O)c2cc(-c3ccc(F)cc3)on2)c(C(=O)OCC)c1C | -19%
O=C(NCCc1ccc(Cl)cc1)c1ccc(CS(=O)Cc2cccc(Cl)c2)o1 (stereo unspecified) | -3.8%
COC(=O)c1sc2cccc(F)c2c1S(=O)(=O)NCc1ccccc1Cl | -1.8%
Cc1cccc(NC(=O)c2sc3nc4n(c(=O)c3c2C)N=C(c2ccc(F)cc2)CS4)c1C | -1.4%
Cc1cn(C)c(CC(=O)NCc2ccc(Cl)cc2)c1C(=O)O | -5.1%
CCCCCn1c(=O)c2c(nc3n2CCN3c2ccc(Br)cc2)n(C)c1=O | -23%
Cc1ccc(-n2ncc(C(=O)NCCCN3CCCCC3)c2C2CCN(C(=O)OC(C)(C)C)CC2)cc1 | -0.8%
NS(=O)(=O)c1ccc(CCNC(=O)c2ccc3nc(Cc4ccccc4)oc3c2)cc1 | -6.4%
O=C(NCCc1ccc(Cl)cc1)c1ccc(CS(=O)(=O)c2ccc(Cl)cc2)o1 | 2.5%
CCOC(=O)c1ccc(NC(=O)CC2C(=O)N(c3ccccc3)C(=O)N2Cc2cccs2)cc1 (stereo unspecified) | -1.0%
CC(C)c1ccc(NC(=O)CSC2=Nc3ccccc3C3=NC(CC(=O)NCc4ccco4)C(=O)N23)cc1 (stereo unspecified) | -2.5%
CCOC(=O)c1cc(S(=O)(=O)NCc2ccc(C)cc2)[nH]n1 | -3.1%

Ordered by length of the SMILES (largest number first): 3 of the compounds above
SMILES | ClpP mod
Cc1cccc(NC(=O)c2sc3nc4n(c(=O)c3c2C)N=C(c2ccc(F)cc2)CS4)c1C | -1.4%
CCOc1ccc(NC(=O)Cn2c(=O)nc(-c3ccccc3)c3ccccc32)cc1 | -27%
CCCCCn1c(=O)c2c(nc3n2CCN3c2ccc(Br)cc2)n(C)c1=O | -23%

Later entries.
SMILES | ClpP mod
CCOC(=O)c1c(C)oc2nc(C)nc(NCc3ccccc3Cl)c12 | -1.2%
COc1ccc(NS(=O)(=O)c2ccc3c(c2)n(C)c(=O)c(=O)n3C)cc1Cl | -1.7%
COc1ccc(OCC(=O)NC2CC(=O)N(c3cccc(OC)c3)C2)cc1 (stereo unspecified) | -0.3%
COC(=O)c1c(-c2ccc(Cl)cc2)noc1N1CCN(c2ccc(C)cc2C)CC1 | -4.3%
COc1ccc(CCNC(=O)c2sc3nc4n(c(=O)c3c2C)CCCC4)cc1OC | 0.1%
CCOc1ccc(N2CC(c3nc4ccccc4n3CCOc3ccccc3OC)CC2=O)cc1 (stereo unspecified) | -0.7%
COCCn1c(=NC(=O)c2ccc3c(c2)OCCO3)sc2cc(C(=O)OC)ccc21 | -7.0%
O=C(NCCn1cc(SCc2ccc(F)cc2)c2ccccc21)c1cccs1 | -4.8%
Cc1coc2c(C)c3oc(=O)c(CCC(=O)NCCc4ccccc4)c(C)c3cc12 | ?
CCOc1ccc(Cn2c(CNS(=O)(=O)c3ccc([N+](=O)[O-])cc3)nc3cccnc32)cc1 | 0.2%
CC(=O)N1CCc2c(sc3c2c(=O)n(-c2ccc(C)cc2)c(=O)n3Cc2ccccc2C)C1 | -15%
CCN(CC)C(=O)c1sc2c(c1C)c(=O)n(-c1ccc(C)c(C)c1)c(=O)n2Cc1cc(=O)n2ccccc2n1 | -27%
Cc1ccc(-n2c(=O)c3c4c(sc3n(CC(=O)Nc3cccc(Cl)c3)c2=O)CCCCC4)cc1C | -2.9%
Cc1ccc(Cc2nc3ccccc3nc2SCC(=O)N2CCCc3ccccc32)cc1 | -0.3%
COC(=O)c1cc2occc2n1CC(=O)Nc1ccc(N(C)C)cc1 | 0.9%
CC(C)Oc1ccc(C(=O)N2CCC(c3nc4ccccc4s3)CC2)cc1 | -2.1%
CCOC(=O)c1ccccc1NC(=O)c1cnn(-c2ccc(OC)cc2)c1C1CCN(C(=O)OC(C)(C)C)CC1 | -7.0%
CCOc1ccc(CCNC(=O)c2cn(-c3cccc(OC)c3)c(=O)c3ccccc23)cc1 | -15%
Cn1ncc(C(=O)N2CCN(c3ccc(F)cc3)CC2)c1C1CCN(C(=O)OC(C)(C)C)CC1 | -1.7%
COc1cc(C2Nc3ccccc3C(=O)N2Cc2ccco2)cc(OC)c1OC (stereo unspecified) | 3.9%
O=c1c2oc3ccccc3c2n(Cc2ccc(F)cc2)c(=O)n1Cc1ccco1 | -9.2%
Cc1cccc(-c2cc(NC(=O)COc3ccccc3F)n(-c3ccccc3)n2)c1 | 0.3%
O=C(O)C1CCCC1 | -26%
CC(Oc1ccccc1)C(=O)Nc1nc2ccc(S(N)(=O)=O)cc2s1 (stereo unspecified) | -0.4%
CCc1nnc(SCC(=O)Nc2cc(OC)ccc2OC)nc1CC | 1.0%
CCOc1ccc(OCC)c(Nc2nc3ccccc3c3nnc(C)n23)c1 | -8.4%
CCN(C(=O)c1sc2cc(OC)ccc2c1Cl)c1ccccc1 | 0.7%
CC(=O)NC(Cc1ccc([N+](=O)[O-])cc1)C(=O)NCC(N)C(=O)c1ccccc1 (stereo unspecified) | -1.0%
CCCN(CCC)C(=O)c1cc2c(=O)n3cccc(C)c3nc2n1C | 4.5%
COc1ccc(C)cc1NS(=O)(=O)c1c(C(=O)N2CCC(C)CC2)c(C)n(C)c1C | -0.5%
Cc1ccccc1Nc1nc(-c2cccc(Cl)c2)c2c(n1)-c1ccccc1OC2 | -7.6%
Cc1ccc(Cl)cc1N1CCN(C(=O)c2cccn3c(=O)c4cc(Cl)ccc4nc23)CC1 | -3.8%
CCc1ccccc1N(CC)C(=O)Cn1nc(Cc2ccncc2)c2ccccc2c1=O | -4.5%
CC1Cc2cc(S(=O)(=O)CCC(=O)NCc3ccc(Cl)cc3)ccc2N1C(=O)C1CC1 (stereo unspecified) | -0.5%
COc1ccc(S(=O)(=O)N(CC(=O)Nc2cccnc2)c2ccc(C)cc2)cc1OC | 0.5%
O=C(Nc1ccc(Cl)cc1F)c1cnc2sc(N3CCOCC3)nn2c1=O | -0.4%
Cc1ccc2oc(-c3ccc(C)c(NC(=O)C(C)(C)Oc4ccc(Cl)cc4)c3)nc2c1 | 3.6%
COc1ccc(-c2noc(CSc3nnc(C)n3-c3ccc(F)cc3)n2)cc1 | -0.5%
COCCCNC(=O)c1ccc2nc(CCc3ccccc3)oc2c1 | 0.0%
COc1cc2c(cc1OC)C(COc1ccc3c(C)cc(=O)oc3c1)N(C(=O)C(C)C)CC2 (stereo unspecified) | -0.9%
Cc1ccc(N(CC(=O)NCc2ccc(OC(C)C)cc2)S(=O)(=O)N(C)C)cc1 | 1.9%
COc1ccccc1C(=O)NCCn1cc(SCc2ccccc2Cl)c2ccccc21 | -0.1%
COc1ccc(C(NC(=O)COc2ccc(C#N)cc2)c2ccc(OC)cc2)cc1 | -0.6%
Cc1ccc(N(Cc2cccs2)C(=O)c2ccccc2)cc1 | -0.3%
Cc1cc(Nc2nc3ccccc3c3nnc(C)n23)ccc1Br | -8.1%
CC1CCN(c2nn3c(=O)c(C(=O)NCCCOC(C)C)cnc3s2)CC1 | 4.4%
CCOC(=O)c1ccc(NC(=O)CS(=O)(=O)Cc2nc(-c3ccc(C)cc3)oc2C)cc1 | -2.1%
COc1ccc(N2CCN(C(=O)c3ccc4nc(N5CCC(C)CC5)sc4c3)CC2)cc1 | 0.8%
Cc1nn2c(=O)cc(COC(=O)c3cccc(NC(=O)COc4ccccc4Cl)c3)nc2s1 | -1.4%
COc1ccccc1C(=O)Nc1c(C(=O)Nc2cc(Cl)ccc2C)sc2nc(C)cc(C)c12 | -6.3%

(continued)
SMILES | ClpP mod
Cc1ccc(OCCSc2nc3ccc(NC(=O)c4ccc(F)cc4)cc3s2)cc1 | 0.9%
CCCCC(=O)OC1=C(C(C)=O)N(Cc2ccccc2)S(=O)(=O)c2ccccc21 | -2.3%
Cc1ccc(NC(=O)Cn2cc(S(=O)(=O)Cc3ccccc3)c3ccccc32)cc1C | -0.4%
CCn1c(=O)cc(SCC(=O)NCc2ccc(F)cc2Cl)c2ccccc21 | -0.2%
COC(=O)Cc1c(C)c2ccc3c(c2oc1=O)CN(Cc1ccc(C)cc1)CO3 | 79%
C[C@@H]1[C@H](c2ccccc2)OCCS(=O)(=O)N1Cc1cccc(C(F)(F)F)c1 | -0.6%
Cc1nc(C)c(CCNS(=O)(=O)c2ccc(F)cc2)s1 | 1.4%
CN(Cc1ccccc1)S(=O)(=O)c1nnc(NC(=O)c2ccccc2Cl)s1 | -0.1%
CC(C)Oc1ccc(CNC(=O)c2cnc3sc(N4CCCCCC4)nn3c2=O)cc1 | ?
CCCn1cc(S(=O)(=O)c2cccc(Cl)c2)c(=O)c2cc(F)c(N3CCCC3)cc21 | -24%

Look-ups from the results shown:
For ClpP mod, `Cc1cccc(NC(=O)c2sc3nc4n(c(=O)c3c2C)N=C(c2ccc(F)cc2)CS4)c1C` is entered as -1.4%
For ClpP mod, `Cc1ccc(NC(=O)Cn2cc(S(=O)(=O)Cc3ccccc3)c3ccccc32)cc1C` is entered as -0.4%

Another view of some results above:
Compound	ClpP mod
Cc1ccc(NC(=O)Cn2cc(S(=O)(=O)Cc3ccccc3)c3ccccc32)cc1C	-0.4%
CCn1c(=O)cc(SCC(=O)NCc2ccc(F)cc2Cl)c2ccccc21	-0.2%
COC(=O)Cc1c(C)c2ccc3c(c2oc1=O)CN(Cc1ccc(C)cc1)CO3	79%
C[C@@H]1[C@H](c2ccccc2)OCCS(=O)(=O)N1Cc1cccc(C(F)(F)F)c1	-0.6%
Cc1nc(C)c(CCNS(=O)(=O)c2ccc(F)cc2)s1	1.4%

More entries.
SMILES | ClpP mod
O=C(Nc1ccc2oc(-c3ccc4ccccc4c3)nc2c1)c1cc(Br)ccc1Cl | ?
COc1ccc(Cc2nc3ccccc3n2Cc2ccccc2C)cc1 | -1.7%
Cc1oc2ncn(CC(C)C)c(=O)c2c1C(=O)NCCc1ccccc1 | 0.1%
CCOc1ccc(CNC(=O)c2ccc3nc(Cc4ccc(OC)cc4)oc3c2)cc1OC | -6.4%
Cc1cccc(Cn2c(SCc3ccc(C(=O)NC4CCCC4)cc3)nc3ccncc32)c1 | -4.3%
CC1CCN(S(=O)(=O)c2ccc3c(c2)c(=O)c(C(=O)NCc2ccc(Cl)cc2)cn3C)CC1 | -3.4%
O=C(CN1C(=O)C(c2ccc(F)cc2)=NC12CCCCCC2)Nc1ccccc1Cl | -0.6%
O=C(Nc1ccc(Cl)cc1)c1ccc2c(c1)N(Cc1ccccc1)C(=O)c1ccccc1S2(=O)=O | -9.3%
COc1ccc(NC(=O)Cn2c(=O)n(-c3ccc(OC)cc3)c(=O)c3sc4ccccc4c32)cc1 | -26%
CN(Cc1ccccc1)S(=O)(=O)c1nnc(NC(=O)c2cccc(Cl)c2)s1 | -7.2%
COc1ccc(C(=O)NCC(c2cccs2)S(=O)(=O)c2cccs2)cc1 (stereo unspecified) | -12%
CC1CCN(S(=O)(=O)c2ccc3c(c2)oc(=O)n3CC(=O)O)CC1 | -4.8%
CCOC(=O)c1cc2c(=O)n3ccccc3nc2n(CC(C)C)c1=NC(=O)COc1ccc(Cl)cc1 | 3.6%
CC(=O)c1ccc(NC(=O)CN2C(=O)c3cccnc3Sc3ccccc32)cc1 | -17%
Cc1nn(S(=O)(=O)c2ccc(C(C)(C)C)cc2)c(C)c1S(=O)(=O)N1CCCCCC1 | 1.1%
CCCCC(Sc1nc2cc3c(cc2c(=O)n1CCCC(=O)NCc1ccc(OC)cc1)OCO3)C(=O)OCC (stereo unspecified) | -5.9%
CCCc1cc(=O)n2[nH]c(NC(=O)c3ccc(C(C)(C)C)cc3)nc2n1 | 1.8%
Cc1cccc(N2CCN(C(=O)c3ccc4c(c3)N(Cc3ccccc3)C(=O)c3ccccc3S4(=O)=O)CC2C)c1 (stereo unspecified) | -1.9%
CCCn1c2ccccc2c2cnn(CC(=O)N3CCN(c4ccccc4F)CC3)c(=O)c21 | ?
O=C(NCc1ccccc1Cl)C1CCN(C(=O)N2CCOc3ccccc32)CC1 | 0.7%
CC(Oc1ccccc1F)C(=O)NCC1(N2CCOCC2)CCCCC1 (stereo unspecified) | -2.7%
COc1cc(-c2ccno2)ccc1S(=O)(=O)N1CCN(c2ccc(C(C)=O)cc2)CC1 | -4.2%
Cc1cc(C)c(NC(=O)Cn2c(=O)n(CCC(=O)N3CCc4ccccc4C3)c(=O)c3ccccc32)c(C)c1 | 8.9%
Cc1cccc(NC(=O)CSc2nnc(CNC(=O)c3cccc(C)c3)n2-c2ccccc2)c1 | 1.5%
Cc1ccc(C)c(NC(=O)c2ccc(=O)n(Cc3ccc(F)cc3)c2)c1 | -3.5%
CCOc1ccccc1CNC(=O)Cn1c(=O)c2cccn2c2ccc(F)cc21 | -7.3%
CC1CCc2c(sc(NC(=O)c3ccccc3)c2C(=O)Nc2ccccc2)C1 (stereo unspecified) | -4.4%
